VDR inhibitor = inhibitors of human vitamin D receptor | 400,000 compounds, 0.93% hits | VDR-SRC2-3 peptide fluorescence polarization, 2 h | Potency, µM, for the others: max response, negative = inhibition, actives largely listed as inhibitors | P11473 | AID 504847; active = well fitted inhibition curve with a large enough effect; inconclusive = small, poorly fitted or top-dose-only effect, or another doubt; inactive = no such curve, though single readings can be large or run the other way; note: series mostly up to about 120 µM
Target sequence (P11473 whole entry, looked up): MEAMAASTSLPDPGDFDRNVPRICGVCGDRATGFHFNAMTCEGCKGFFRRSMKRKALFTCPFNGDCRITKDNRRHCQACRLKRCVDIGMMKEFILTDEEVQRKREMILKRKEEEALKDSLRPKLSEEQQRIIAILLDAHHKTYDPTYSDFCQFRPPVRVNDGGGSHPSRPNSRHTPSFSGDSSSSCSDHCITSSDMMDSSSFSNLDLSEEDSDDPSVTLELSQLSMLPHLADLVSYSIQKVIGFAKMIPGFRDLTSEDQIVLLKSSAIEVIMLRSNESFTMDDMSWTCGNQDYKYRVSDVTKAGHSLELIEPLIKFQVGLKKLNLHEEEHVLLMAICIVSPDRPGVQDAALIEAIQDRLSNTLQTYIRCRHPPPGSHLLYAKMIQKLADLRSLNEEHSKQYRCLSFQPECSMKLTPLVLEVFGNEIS
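Inhibition of the VDR/SRC2-3 peptide interaction is quantified by fluorescence polarization. Compounds (23 nl, pintool) incubate with the reagents for 2 hours at ambient room temperature.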
* = called active by the depositor; ? = inconclusive; & = joins results of further samples; [ ] = dose if it differs, or a comment. % is set by controls: 0 for no effect and ±100 for the full control effect; potency is the fitted concentration of half-maximal effect.

SMILES	VDR inhibitor
COc1ccccc1N=C1SCCCN1C	2%
N=C1c2ccccc2CN1NC(=O)c1ccccc1	3%
CC(C)Oc1cc(-n2nc(C(C)(C)C)oc2=O)c(Cl)cc1Cl	0%
O=C(N/N=C/c1c(O)n(Cc2ccco2)c(=O)[nH]c1=O)c1ccccc1O	-9%
O=c1oc2ccccc2c(O)c1C(c1ccc([N+](=O)[O-])cc1)c1c(O)c2ccccc2oc1=O	?
COC(=O)C1=C(c2ccc3ccccc3c2)C[C@@H]2CC[C@H]1N2C(=O)N1CCC(C)CC1	-3%
CN1CCCN(C(=O)COc2cccc(C(F)(F)F)c2)CC1	0%
CCCN1CCC[C@@H]2Cc3cn[nH]c3C[C@H]21	0%
O=[N+]([O-])/C(Cl)=C1\NCCN1Cc1ccc(Cl)nc1	-2%
CC(C)N(CCC(C(N)=O)(c1ccccc1)c1ccccn1)C(C)C (configuration not stated)	1%&-3%&-6%&7%&8%
COC(=O)C1=C(c2ccc(F)cc2F)C[C@@H]2CC[C@H]1N2C(=O)NCc1ccc2c(c1)OCO2	-6%
CC(C)[C@H]1C(=O)O[C@H](C(C)C)C(=O)N(C)[C@@H](C(C)C)C(=O)O[C@H](C(C)C)C(=O)N(C)[C@@H](C(C)C)C(=O)O[C@H](C(C)C)C(=O)N1C	-12%

The final two compounds of the part above lead into the next.
SMILES	VDR inhibitor
COC(=O)C1=C(c2ccc(F)cc2F)C[C@@H]2CC[C@H]1N2C(=O)NCc1ccc2c(c1)OCO2	-6%
CC(C)[C@H]1C(=O)O[C@H](C(C)C)C(=O)N(C)[C@@H](C(C)C)C(=O)O[C@H](C(C)C)C(=O)N(C)[C@@H](C(C)C)C(=O)O[C@H](C(C)C)C(=O)N1C	-12%
CCN(CC)C(=O)c1ccc(NC(=O)Nc2ccccc2F)cc1	-10%
Cc1cc(OCC(=O)N2CCC(C(=O)O)CC2)c2c3c(c(=O)oc2c1)CCCC3	0%
CCNc1cc(N2CCN(C)CC2)ccc1[N+](=O)[O-]	1%
COCCOC(=O)C1=C(N)OC(C)=C(C(=O)OC)C12C(=O)Nc1ccccc12 (configuration not stated)	-2%
Cn1cc(C(=O)c2ccccc2)c2ccccc21	-3%
CCC(C)n1c(O)c(/C=N/Nc2nc3c(c(=O)n(C)c(=O)n3C)n2C)c(=O)[nH]c1=S (configuration not stated)	3%
CCC1(CCCC(=O)c2ccc(F)cc2)C(=O)NC(=S)NC1=O	-15%
Cc1ccc(C(=O)N[C@@H](C)CN2C3=NC[C@H](Cc4ccccc4)N3C[C@H]2Cc2ccc(O)cc2)cc1Br	-6%
CCCCCc1cc(O)c2c(c1)OC(C)(C)[C@@H]1CCC(C(=O)O)=C[C@H]21	?
COc1cc(C)c(CN2CCN(c3ccccc3)CC2)cc1C	-11%
COC(=O)C1=C(c2cc3ccccc3o2)C[C@@H]2CC[C@H]1N2C(=O)N1CCC(C)CC1	1%
CN(CCc1nnc(N)s1)[N+](=O)[O-]	11%
Cc1ccccc1CN1C(=O)CN=C(c2ccccc2)c2cc(Cl)ccc21	15%
OCC#CC[N+]1(CC#Cc2ccccc2)CCCC1	19%
CN1CC=C2C(C#N)=C(N)C(C#N)(C#N)C(c3ccncc3)C2C1 (configuration not stated)	-6%
O=C(C1CCCO1)N1CCC2(CC1)OCCO2 (configuration not stated)	1%
COc1ccc(CN2CCN(C(=O)COc3ccccc3)CC2)c(OC)c1	-18%
CC(C)CN1CCN(Cc2cccc3c2OCO3)CC1CCO (configuration not stated)	-28%
COCCOC(=O)c1c(N)n(Cc2ccco2)c2nc3ccccc3nc12	27%
O=[N+]([O-])c1cc([As](=O)(O)c2ccc(O)c([N+](=O)[O-])c2)ccc1O	-12%
O=C(c1cc(C(=O)NCc2ccccc2)c(=O)n(Cc2ccccc2)c1)c1cc(Cl)ccc1O	2%
CCOC(=O)c1ccc2c(c1)n(Cc1ccccc1)c(C)[n+]2CC	-9%
CN1CC[C@@]2(C)c3cc(OC(=O)Nc4ccccc4)ccc3N(C)[C@@H]12	?
C=CCN1CC[C@]23c4c5ccc(O)c4OC2C(O)CC[C@@]3(O)[C@H]1C5 (some centres not stated)	-11%
CC1CCC(N2CCN(C(=O)COc3ccccc3)CC2)CC1 (configuration not stated)	-25%
Cc1nn(Cc2ccccc2Cl)c(Cl)c1C(=O)OCC(=O)NCc1ccco1	-17%
C=CCNC(=S)/N=C/c1c(O)[nH]c(=O)[nH]c1=O	-4%
Cc1nn(CC(C)C)c(Cl)c1C(=O)O	10%
C/C=C(\C)C(=O)OC1CC(OC(C)=O)[C@@]2(C(=O)OC)COC3C2[C@@]12CO[C@](O)(C(=O)OC)C2[C@](C)(C12OC1(C)C1CC2OC2OC=C[C@]21O)C3O (some centres not stated)	6%
Cc1ccsc1C(=O)C1CCCN(Cc2sc(N(C)C)nc2Cl)C1 (configuration not stated)	5%
COC(=O)C1=C(c2cccc(OCc3ccccc3)c2)C[C@@H]2CC[C@H]1N2C(=O)NCc1ccc(F)cc1	-1%
CCN(CC)C(=O)c1ccc(NC(=O)C2=C(C)OCCS2)cc1	30%[activator]
Cc1cc(OCC(=O)NCc2ccncc2)c2c3c(c(=O)oc2c1)CCCC3	2%
CC(=O)NC(Cc1ccc(N(CCCl)CCCl)cc1)C(=O)NC(CC(C)C)C(=O)O (configuration not stated)	-17%
CCCCCCn1c(O)c(C=NCCN2CCCCC2)c(=O)[nH]c1=O	-4%
O=C1NC(=O)N(CCc2ccc(F)cc2)C(=O)/C1=C/C=C/c1ccccc1	?
CC1(C)N(O)C(c2ccc(C(=O)O)cc2)=[N+]([O-])C1(C)C	?
COC(=O)C1=C(c2ccc(-c3ccccc3)c(F)c2)C[C@@H]2CC[C@H]1N2C(=O)NC(C)C	4%
O=C1NC(=O)N(c2ccccc2)C(=O)/C1=C\C=C\c1ccccc1	?
O=[N+]([O-])c1cc(O)c(O)c([N+](=O)[O-])c1	10%&-5%
O=C(C[N+]12CCC(CC1)C(CO)C2)c1ccc([N+](=O)[O-])cc1 (configuration not stated)	-13%
CC(N=Cc1c(O)[nH]c(=O)[nH]c1=O)c1ccccc1 (configuration not stated)	-9%
N#CC1=C(N)Oc2c(c(=O)oc3ccccc23)C1c1ccc(OC(=O)N2CCOCC2)cc1 (configuration not stated)	-12%
CN(C)c1c([N+](=O)[O-])cc(N2C(=O)C=CC2=O)cc1[N+](=O)[O-]	16µM*
CCC(=NCCN1CCCCC1)c1c(O)n(C)c(=O)n(C)c1=O	7%
Cc1cc(C)cc(-n2c(O)c(C=Nc3ccc(N4CCOCC4)cc3)c(=O)[nH]c2=S)c1	-8%
Cc1c(C(=O)C(=O)N2CCC3(CC2)OCCO3)c2ccccc2n1C	-9%
CS(=O)(=O)NNP(=O)(NNS(C)(=O)=O)NC(=O)c1ccccc1	-15%
C=C(C)C1CCC(C)=CC1c1c(OC)cc(C)cc1OC (configuration not stated)	8%
COc1cc(C=C2C(=O)NC(=O)NC2=O)cc(OC)c1OC	?
CCOC(=O)C1C(=O)N(C)C2(C)CC1c1cc(OC)ccc1O2 (configuration not stated)	-12%
Fc1ccc(CCNCc2ccc(Br)cc2)cc1	11%
O=C(CN1CCN(c2ccccc2F)CC1)Nc1cccnc1Cl	-6%
O=C(Nc1ccccc1Cl)OC1CN2CCC1CC2 (configuration not stated)	-2%
C[C@]12CCC3C(CC[C@H]4C[C@@H](O)CC[C@]34C)[C@@H]1CCC2=O (some centres not stated)	-15%
COc1cc(C2c3cc4c(cc3CC3COC(=O)C32)OCO4)cc(OC)c1O (configuration not stated)	-2%
CCCCn1c(O)c(C(C)=Nc2ccc(C(=O)O)cc2)c(=O)[nH]c1=O	-15%
CCC1C2Cc3ccc(O)cc3C1(CC)CCN2C (configuration not stated)	4%
CC(=O)c1ccc(OC(C)C)c(Cc2c(O)[nH]c(=S)[nH]c2=O)c1	?
CN(C)c1ccc([P+](=O)c2ccc(N(C)C)cc2)cc1	9%

Next part; it opens with the four that closed the last part.
SMILES	VDR inhibitor
CCCCn1c(O)c(C(C)=Nc2ccc(C(=O)O)cc2)c(=O)[nH]c1=O	-15%
CCC1C2Cc3ccc(O)cc3C1(CC)CCN2C (configuration not stated)	4%
CC(=O)c1ccc(OC(C)C)c(Cc2c(O)[nH]c(=S)[nH]c2=O)c1	?
CN(C)c1ccc([P+](=O)c2ccc(N(C)C)cc2)cc1	9%
CCCCc1nc(N2CCNCC2)c(C#N)c2c1CSC(C)(C)C2	-22%
CCN(CC)c1nc2c(C)cccn2c(=O)c1C=C1C(=O)NC(=O)NC1=O	9%
CSc1ncc(/C=C2/C(=O)NC(=O)N(c3ccc(C)cc3)C2=O)cn1	40µM*
CCC(C)NC(=O)c1c(N)n(CCCOC)c2nc3ccccc3nc12 (configuration not stated)	-25%
O=C(c1ccc(Cl)cc1)C1CCCN(C2CCSCC2)C1 (configuration not stated)	-13%
CC(C)(O)C(=O)Nc1ccc([N+](=O)[O-])c(C(F)(F)F)c1	-10%
CN(C)c1cccc2c(C#N)ccc(N(C)C)c12	-3%
Cc1ccc2[nH]c(C)c(CCNCc3ccco3)c2c1	-16%
COc1ccc(C(=O)c2nc3ccccc3n2C(C)C)cc1OC	14%
Cc1cccc(N2C(=O)NC(=O)/C(=C/c3ccc([N+](=O)[O-])o3)C2=O)c1	?
O=C(Cc1ccccc1)Oc1ccc(N2C(=O)CCC2=O)cc1	1%
CP(=O)(O)CCCN	-4%
O=P(Nc1c(Cl)cccc1Cl)(c1ccccc1)c1nc2c(s1)CCCC2 (configuration not stated)	2%
CN(C)CCN=Cc1c(O)n(-c2cccc(C(F)(F)F)c2)c(=O)[nH]c1=O	-8%
O=C(c1ccccc1F)N1C[C@H]2C[C@@H](C1)c1cccc(=O)n1C2	-2%
O=c1c2ccccc2[nH]c(=S)n1-c1ccc2c(c1)OCO2	-16%
Cc1c(/C=N/O)c2ccccc2n1C	7%
COc1ccccc1OCC#CCN1CCCC(C)C1 (configuration not stated)	-9%
O=C(NC(c1ccc(Cl)cc1)P(=O)(Oc1ccccc1)Oc1ccccc1)OCc1ccccc1 (configuration not stated)	-8%
COc1ccccc1C1CC2CCC(C1OC(C)=O)N2Cc1ccccc1 (configuration not stated)	0%
CC1CC2OC2/C=C\C=C/C(=O)Cc2c(Cl)c(O)cc(O)c2C(=O)O1 (configuration not stated)	45µM*
CCC(=NCc1ccc2c(c1)OCO2)c1c(O)n(C2CCCCC2)c(=O)[nH]c1=O	-1%
O=c1[nH]c(=S)n(-c2ccccc2F)c(O)c1C=NCCN1CCNCC1	-1%
CN(C(=O)COC(=O)c1cn(C)c2ccccc12)C1CCCCC1	-2%

By substructure, the compounds so far with a furan ring, fused or not (6)
SMILES	VDR inhibitor
O=C(N/N=C/c1c(O)n(Cc2ccco2)c(=O)[nH]c1=O)c1ccccc1O	-9%
COC(=O)C1=C(c2cc3ccccc3o2)C[C@@H]2CC[C@H]1N2C(=O)N1CCC(C)CC1	1%
COCCOC(=O)c1c(N)n(Cc2ccco2)c2nc3ccccc3nc12	27%
Cc1nn(Cc2ccccc2Cl)c(Cl)c1C(=O)OCC(=O)NCc1ccco1	-17%
Cc1ccc2[nH]c(C)c(CCNCc3ccco3)c2c1	-16%
Cc1cccc(N2C(=O)NC(=O)/C(=C/c3ccc([N+](=O)[O-])o3)C2=O)c1	?

Going on with the list:
SMILES	VDR inhibitor
CN1CCN(c2ccc(S(C)(=O)=O)cc2[N+](=O)[O-])CC1	-20%
C[C@]12CC[C@H](O)C[C@H]1CC[C@@H]1C2CC[C@]2(C)[C@@H](C3=CC(=O)OC3)[C@@H](O)C[C@]12O (some centres not stated)	14%
CC12CCC3C(CC=C4CC(O)CCC43C)C1C/C(=C\c1ccccc1F)C2=O (configuration not stated)	1%
CS(=O)(=O)N1Cc2ccccc2-n2nncc2C1	-9%
Cc1ccc(S(=O)(=O)N2Cc3ccccc3-n3nncc3C2)cc1	0%
Cc1c2ccncc2c(C)c2c1[nH]c1ccccc12	-10%&15%&6%
COc1cc(/C=C2\C[C@H]3[C@@H]4CC=C5C[C@@H](N6CCCC6)CC[C@]5(C)[C@H]4CC[C@]3(C)[C@H]2O)cc(OC)c1OC	?
CCOc1cncc(/C=C/CCNC)c1	?
OC12C3C4CC5C6C4C1C6C(C53)N2CCc1cccc(F)c1 (configuration not stated)	12%
O=C(C1CCC(=O)N1Cc1ccccc1Cl)N1CCC2(CC1)OCCO2 (configuration not stated)	-12%
CN1CCN(C(=O)COc2ccc(C(C)(C)C)cc2Br)CC1	-1%
O=C(NC1CCCCC1)Oc1cc2oc(=O)sc2cc1Cl	32µM*
CC(C)CS(=O)(=O)C1=NN2C(=N)/C(=C\c3ccc(OC(=O)c4ccco4)cc3)C(=O)N=C2S1	?
CNC(=S)N(C)CCc1cc2c(c(OC)c1C=C1C(=O)NC(=O)NC1=O)OCO2	-4%
Cc1sc2c(c1C)C(c1ccc(C(C)(C)C)cc1)=NCC(=O)N2CC(=O)Nc1nccs1	10%
Nc1ccccc1C(=O)OC1CSC1	-7%
CCCN(CC#CCO)CCC	6%
CCOC(=O)[C@]12Cc3cc(C)ccc3[C@H]1N(Cc1ccccc1)C(=O)c1ccccc12	0%
NCCc1nc2ccccc2s1	6%
CCOc1ccc(N=Cc2c(O)n(C(C)(C)C)c(=O)[nH]c2=O)cc1	-1%
[N-]=[N+]=CC(=O)OC[C@H](N)C(=O)O	22%
CC[C@H]1CC2CN3CCc4c([nH]c5cc(OC)ccc45)[C@](C(=O)OC)(C2)[C@H]13	2%
C=CCn1c(C)c(C=C2C(=O)NC(=O)NC2=O)c2ccccc21	?
CC(=O)C1=C(C)OC(N)=C(C(=O)OC(C)C)C12C(=O)Nc1ccccc12 (configuration not stated)	-7%
COC(=O)OCC12CCC(O1)C1(C)C(=O)OCC21 (configuration not stated)	?

Screens: PubChem BioAssay, National Center for Advancing Translational Sciences (NCATS)

These rows are one share of the data. The share of hits here may be higher or lower than overall.
